# Rce1 inhib – inhibitors of yeast Ras-converting enzyme; yeast membranes, quenched prenylated peptide cleavage fluorescence; calls only; 290,000 tested, 0.27% active;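 active means fall in fluorescence gain of 50% or more versus controls, with final raw signal at or below 3038400; inconclusive means same 50% fall but final raw signal above 3038400; inactive means fall in fluorescence gain under 50%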;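 further: plate controls were neutral control wells for no effect and wells lacking membranes for full effect; tested at 10 µM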
# Target sequence (Q03530 whole entry, looked up): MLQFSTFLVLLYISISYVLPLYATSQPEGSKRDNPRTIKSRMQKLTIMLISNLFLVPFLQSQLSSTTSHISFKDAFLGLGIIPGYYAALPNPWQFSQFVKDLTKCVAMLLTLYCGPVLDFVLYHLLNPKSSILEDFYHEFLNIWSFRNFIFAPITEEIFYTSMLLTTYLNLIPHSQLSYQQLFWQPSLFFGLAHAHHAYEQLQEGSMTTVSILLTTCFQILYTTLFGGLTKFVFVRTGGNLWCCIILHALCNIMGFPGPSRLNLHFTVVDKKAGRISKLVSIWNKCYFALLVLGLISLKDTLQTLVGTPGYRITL
# Yeast UUG start – modulators of start codon recognition fidelity in yeast | S. cerevisiae UUG-firefly luciferase reporter, luminescence/redox ratio | 350,000 tested, 0.13% active | activity score, % at 18.7 µM | AID 602363;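 active means replicate mean at a twofold rise or more, about +100% in these data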;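 further: firefly luciferase made from a UUG start codon reports start codon fidelity; reporter light over untreated wells divided by growth signal over untreated wells; some hits fall short of that in this replicate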
# eIF4H FP inh – inhibitors of RNA binding by human eIF4H; Q15056; eIF4H fluorescence polarization binding assay; inhibition, % at 35 µM; 290,000 tested, 0.94% active; AID 2012;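 active means 50% or more with normal probe brightness, or confirmed in later tests; inconclusive means above 50% with abnormal brightness, or retests that disagree; inactive means below 50% or failed in later tests; about a fifth of its hits are not listed in these tables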;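 further: calls also rest on retests at 20 µM and on dose response follow-up; 0% = protein and probe with vehicle and 100% = probe without protein; strong numbers were not always called active; many hits fall short of the cut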
# HIV Env fusion – inhibitors of HIV Env-mediated cell fusion. inhibition, % at 12.3 µM. HeLa-JRFL Env/CEM21 cell fusion, luciferase. 360,000 tested, 1.1% active;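 active means mean replicate inhibition score of at least 50 and every replicate individually at or above 50; inconclusive means only one of the two criteria met; inactive means mean below 50 and not all replicates reaching 50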;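 further: 0% = plate neutral controls and 100% = maraviroc near 300 nM; one replicate is shown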
# PABP FP inh – blocks human PABP binding to poly(A) RNA. P11940. fluorescence polarization. inhibition, % at 35 µM. 290,000 tested, 1% active;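 active means 50% or more with normal probe brightness, or confirmed in later tests; inconclusive means above 50% with abnormal brightness, or retests that disagree; inactive means below 50% or failed in later tests; about a fifth of its hits are not listed in these tables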;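 further: calls also rest on retests at 20 µM and on dose response follow-up; controls were probe without protein and protein plus probe with vehicle; some compounds called inactive have numbers as strong as hits; many hits fall short of the cut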
# Target sequence (P11940 whole entry, looked up): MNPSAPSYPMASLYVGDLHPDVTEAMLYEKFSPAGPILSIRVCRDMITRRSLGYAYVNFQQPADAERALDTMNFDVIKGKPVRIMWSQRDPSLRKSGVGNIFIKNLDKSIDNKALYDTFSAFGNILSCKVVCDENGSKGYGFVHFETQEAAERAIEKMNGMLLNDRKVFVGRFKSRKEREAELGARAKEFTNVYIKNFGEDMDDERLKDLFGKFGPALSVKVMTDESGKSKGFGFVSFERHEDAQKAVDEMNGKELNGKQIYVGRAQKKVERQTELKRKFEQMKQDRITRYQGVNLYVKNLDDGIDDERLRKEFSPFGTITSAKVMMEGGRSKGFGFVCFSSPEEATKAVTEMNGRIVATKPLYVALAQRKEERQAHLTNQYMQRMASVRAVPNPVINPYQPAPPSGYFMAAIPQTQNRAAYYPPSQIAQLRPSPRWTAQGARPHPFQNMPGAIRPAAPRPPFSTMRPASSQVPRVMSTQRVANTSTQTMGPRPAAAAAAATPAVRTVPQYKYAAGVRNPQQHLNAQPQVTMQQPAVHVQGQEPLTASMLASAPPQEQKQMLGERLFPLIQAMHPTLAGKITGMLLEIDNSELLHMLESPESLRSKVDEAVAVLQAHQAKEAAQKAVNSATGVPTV
# CSC inhib – blocks cancer stem cells | inhibition, % at 7.5 µM | AID 2717 | 300,000 tested, 1.1% active | cancer stem cell-like cells viability, luminescence;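 active means mean at 75% or more and at least half the replicates too; inconclusive means mean and replicates disagree; tested in HMLE shEcad cells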;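 further: 0% = median of negative and 100% = median of positive control wells; the first replicate is given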
# MT1-MMP act inh – inhibitors of human MT1-MMP activation. P50281. HT1080 RFP-PRO-GFP cells, GFP/RFP ratio fluorescence, overnight; percent of plate control window, DMSO zero. GFP/RFP ratio change, % at 20 µM. 360,000 tested, 0.061% active. AID 651647;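 active means GFP/RFP ratio change of at least 30% with cell ATP level not reduced by more than half and red fluorescence within 50% of control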; further: strong numbers were not always called active
#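 Material: RFP-PRO-GFP reporter HT1080 cells. Dosing: single-point 20 µM compound, 1% DMSO. Controls: DMSO and RFP-L50D-GFP cell wells. Timing: cells overnight before dosing, compound overnight, 37 °C, 5% CO2. Measure: GFP/RFP fluorescence ratio.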
# eIF4H FP inh retest – second read-out of eIF4H FP inh, no call of its own (marks repeat the call); inhibition, %; compound at 20 µM; confirmation average;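 mean of two retest wells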
# PABP FP inh retest – also measured in PABP FP inh; calls as there; inhibition, %; compound at 20 µM; confirmation repeats;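 mean of two retest wells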
# MT1-MMP act inh RFP – further read-out of MT1-MMP act inh, marked with its call; RFP signal change, %; measured here: RFP expression control read;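 0 = vehicle wells; hits needed this value within 50% of zero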
# An asterisk follows results filed as active; i = inactive; ? = inconclusive; · = no result given; + = active, no number.
SMILES,Rce1 inhib,Yeast UUG start,eIF4H FP inh,HIV Env fusion,PABP FP inh,CSC inhib,MT1-MMP act inh,MT1-MMP act inh RFP,others
NS(=O)(=O)c1ccc(NC(=S)N2CCN(c3ccccc3)CC2)cc1,i,-6,-4,18,-6,-7,-1,-1,
Cn1cc(SCC(=O)Nc2nc3ccccc3s2)c2ccccc21,i,-10,5,·,-3,-6,4,-3,
CC(C1CC1)N(C(=O)NC1CCS(=O)(=O)C1)c1ccccc1 (stereo unspecified),i,·,-6,·,-3,-8,0,2,
CCOC(=O)CCc1c(C)c(C#N)c2nc3ccccc3n2c1-n1ccnc1C,i,-19,12,-127,1,-11,-2,1,
Cc1ccc(-n2[nH]c(C)c(C=Nc3ccc(S(=O)(=O)Nc4nc(C)cc(C)n4)cc3)c2=O)c(C)c1,i,·,-5,·,70,3,-4,1,eIF4H FP inh retest=-8;PABP FP inh retest=12
CCCOc1ccc(C(=O)C(CN2CCCC2)c2ccccc2)cc1 (stereo unspecified),i,·,-5,·,-4,101*,-2,-15,
C/C(=N\NC(=S)Nc1cc(S(=O)(=O)N2CCOCC2)ccc1Cl)c1ccc(N2CCOCC2)cc1,i,-14,7,17,3,46,0,0,
COc1nc(N)nc(CC(=O)C2CC2)n1,i,-6,1,·,-4,-17,3,3,
Cc1cnc(NS(=O)(=O)c2ccc(Cl)cc2)c(Br)c1,·,·,2,16,2,-5,-3,2,
Cc1ccc(S(=O)(=O)NCC(=O)NCc2cc(=O)n(C)c(=O)n2C)cc1C,i,-8,4,-15,1,-9,3,3,
Cc1cccc(C)c1NC(=O)CN1CCN(C(=O)CNC(=O)Cc2cccc3ccccc23)CC1,·,-9,·,3,·,·,7,-3,
CN(CC(=O)NC1CCCc2ccccc21)S(=O)(=O)c1ccc2c(c1)c(=O)n(C)c(=O)n2C (stereo unspecified),i,-5,-15,33,0,3,-3,4,
CCc1ccc(C(=O)NNc2cc(Cl)ccc2Cl)cc1,i,·,-7,9,6,5,-4,-8,
O=C(Nc1cccc(C(=O)O)c1)/C(=C\c1ccccc1)NC(=O)c1ccc(Br)o1,·,-8,·,14,·,·,-2,1,
CC(=O)c1c(N2CCN(c3ccc(F)cc3)CC2)nc(=S)n(-c2ccccc2)c1C,i,-2,8,-18,-9,11,-5,-2,
O=C(CSc1cn(CCNC(=O)c2cccs2)c2ccccc12)NC1CCCCC1,i,-4,0,35,-10,3,2,-14,
Nn1c(SCC(=O)N2CCOCC2)nnc1-c1ccc(Cl)cc1Cl,i,-33,-8,-21,-6,·,3,4,
OC(COc1ccc(Cl)cc1)CN1CCN(c2cccc(Cl)c2)CC1 (stereo unspecified),i,2,2,-46,-5,18,-1,3,
CCCN(CCC)C(=O)CSc1ncccc1C(=O)O,i,·,4,-25,-2,25,4,6,
CCCc1cc(=O)oc2cc(C)cc(OC(C)C(=O)N[C@@H](Cc3c[nH]c4ccccc34)C(=O)O)c12 (stereo partly specified),·,-13,9,·,6,0,-2,3,
NC(=O)N/N=C/c1ccccc1OC(=O)c1cc2ccccc2oc1=O,i,-27,1,-35,1,20,0,5,
Cc1ccccc1N1CCN(Cc2nc(Cc3ccccc3F)no2)CC1,i,-7,-1,7,-2,12,-163,-70,
CN(CC(=O)Nc1cc([N+](=O)[O-])ccc1Cl)Cc1ccc(Br)cc1,i,518*,-4,-41,14,11,36*,2.8*,
COc1cc(NS(=O)(=O)c2ccc3[nH]c(=O)[nH]c3c2)cc(OC)c1,i,-11,-6,-6,6,30,2,0,
C/C(=N\NC(=O)c1nc(C)cc(C)n1)c1ccccc1,i,-17,0,-50,-2,9,-4,-5,
CCOc1ccc2nc(SCC(=O)NCC3CCCO3)c(C#N)cc2c1 (stereo unspecified),i,-7,-8,3,11,18,-3,-4,
COCCC(=O)N1CCC(Oc2ccc(C(=O)NCc3cccc(C)n3)cc2)CC1,i,-7,0,3,1,0,3,4,
O=C(Nc1ccccc1F)C1CCCN(S(=O)(=O)c2ccccc2)C1 (stereo unspecified),i,-2,-2,-7,33,-8,0,0,
COc1ccc(Cn2c(=O)oc3ccccc32)cc1,·,-13,·,7,·,·,-4,-1,
CSc1nc(=S)n(-c2ccc([N+](=O)[O-])cc2)c(C)c1C(C)=O,i,-5,5,-2,11,1,-2,2,
CCOC(=O)c1cc(NC(=O)c2ccccc2)c(=O)oc1C(F)(F)F,·,·,0,-3,-11,·,-2,-1,
COc1ccc(CCCc2nnc(SCC(=O)NN)o2)c(C)c1,i,-31,-7,0,-3,0,4,1,
Cn1c(NN)nc2sc3c(c2c1=O)CCC3,i,-24,69,·,22,-14,4,9,eIF4H FP inh retest=0;PABP FP inh retest=9
COCCn1c(CCC(=O)O)nc2c1c(=O)[nH]c(=O)n2CC(C)C,i,-6,-10,8,-3,-21,5,7,
CCSc1sccc1C1C(C#N)=C(N)N(c2cccnc2)C2=C1C(=O)CCC2 (stereo unspecified),·,-9,14,46,18,-6,-18,5,
CCOc1ccc(NC(=O)c2cc(S(=O)(=O)N3CCOCC3)cs2)cc1,i,-15,0,-12,1,-5,2,-5,
Cc1ccc2c(CC(=O)OCc3nc(N)nc(Nc4ccccc4C)n3)coc2c1,i,-9,-5,-39,-4,-1,8,13,
O=C(CNC(=O)c1cccc(F)c1)OCC(=O)N1CCN(C(=O)c2ccco2)CC1,i,213*,5,-3,8,6,0,4,
COc1ccc(CSC(=S)NNc2ccccc2)cc1,·,-17,·,-20,·,·,4,0,
C[C@H](NC(=O)Nc1ccc2c(c1)OCCO2)C(=O)O,i,-2,-13,-13,0,-11,1,10,

# Molecules above with a cyano group:
SMILES,Rce1 inhib,Yeast UUG start,eIF4H FP inh,HIV Env fusion,PABP FP inh,CSC inhib,MT1-MMP act inh,MT1-MMP act inh RFP,others
CCOC(=O)CCc1c(C)c(C#N)c2nc3ccccc3n2c1-n1ccnc1C,i,-19,12,-127,1,-11,-2,1,
CCOc1ccc2nc(SCC(=O)NCC3CCCO3)c(C#N)cc2c1 (stereo unspecified),i,-7,-8,3,11,18,-3,-4,
CCSc1sccc1C1C(C#N)=C(N)N(c2cccnc2)C2=C1C(=O)CCC2 (stereo unspecified),·,-9,14,46,18,-6,-18,5,

# More compounds follow:
SMILES,Rce1 inhib,Yeast UUG start,eIF4H FP inh,HIV Env fusion,PABP FP inh,CSC inhib,MT1-MMP act inh,MT1-MMP act inh RFP,others
O=C1/C(=C/c2ccccc2)N=C(N2CCOCC2)N1c1cccc(Cl)c1,i,4,2,·,4,3,1,-1,
CCN1CCCC(Sc2nc3c([nH]2)c(=S)n(C)c(=O)n3C)C1 (stereo unspecified),i,·,12,11,8,-9,-1,2,
COc1ccc(-c2c(N)nnc3c2[nH]c2ccccc23)cc1OC,i,-16,0,·,11,-12,6,-4,
Cc1ccc(S(=O)(=O)N2CCC(C)CC2)c([N+](=O)[O-])c1,·,3,5,-5,-4,5,2,0,
COc1cc(OC)c(C2C(C(=O)N3CCOCC3)=C(C)NC3=C2C(=O)CC(C)(C)C3)cc1OC (stereo unspecified),i,-17,0,?,3,-3,6,5,
CCc1ccc(NC(=O)c2cccc(NC3=NC4CS(=O)(=O)CC4S3)c2)cc1 (stereo unspecified),i,-9,-6,7,6,·,1,-4,
CC(=O)Nc1ccc(NC(=O)C2CC(=O)Nc3ncnn32)cc1 (stereo unspecified),i,-12,-2,1,8,-6,1,1,
CC(=O)Nc1ccc(C(=O)OCc2ccc(Cl)cc2)cc1,i,13,1,-7,7,9,3,2,
CCOc1ncccc1C(=O)OCC(=O)Nc1cc(S(=O)(=O)N2CCOCC2)ccc1C,i,·,-3,-2,18,-5,2,3,
CCOC(=O)c1sc2nc(C)nc(NCc3ccc(F)cc3)c2c1C,i,-18,-6,25,-2,-5,0,-15,
CCOCCCNc1ncnc2c1nc1n2CCCC1,i,-7,6,-14,4,-2,-2,5,
O=C(CCNC(=O)c1ccc([N+](=O)[O-])cc1)Nc1cccc(S(=O)(=O)N2CCCCCC2)c1,·,-3,·,?,·,-1,17,-6,
COc1ccc(CCNC(=O)Nc2cccc([N+](=O)[O-])c2)cc1,i,-8,-2,4,-16,13,4,-7,
COC(=O)c1ccc(COc2ccc3c(C)c(C)c(=O)oc3c2C)o1,i,1,2,·,-1,·,·,·,
CCOC(=O)C1CCN(c2c(NC3CCCc4ccccc43)c(=O)c2=O)CC1 (stereo unspecified),i,1,-9,-3,-20,-6,2,4,
O=C(CCc1ccc(S(=O)(=O)N2CCOCC2)cc1)Oc1ccccc1,i,-9,-2,-52,6,-9,-7,-7,
Cc1ccc(OCC(=O)c2c[nH]c3ccccc23)c([N+](=O)[O-])n1,i,·,20,24,-2,-7,0,5,
COC(=O)c1ccc(NC(=O)c2ccccc2NS(C)(=O)=O)cc1,i,-2,-8,·,4,12,-4,-13,
COc1ccc(-n2nc(C(=O)N3CCN(c4ccc(F)cc4)CC3)c3ccccc3c2=O)c(OC)c1,·,0,-9,·,0,·,-2,-4,
COC(=O)C1=CO[C@@H](O[C@@H]2O[C@H](CO)[C@@H](O)[C@H](O)[C@H]2O)C2C(CO)=CCC12 (stereo partly specified),·,8,·,-7,·,-10,0,0,
Cc1ccc(NC(=S)N(CCC(C)C)C(C)c2ccncc2)c(Cl)c1 (stereo unspecified),i,-21,2,31,2,4,2,1,
CC(C)Cn1c(-c2cc(Br)ccc2F)nc2c1c(=O)[nH]c(=O)n2CC(C)C,i,-2,-9,0,1,21,-5,-5,
Cc1cc(C)c(S(=O)(=O)N2C=CC(C(F)(F)F)=NCC2)c(C)c1,i,-9,10,2,3,-20,11,5,
O=S(=O)(Nc1nc2ccccc2s1)c1ccc(Cl)s1,i,-7,6,·,13,52,-3,-1,
CCOc1ccc(N(C(C)=O)c2nc(C)cc(C)c2C#N)cc1,i,-1,4,·,9,3,-3,6,
O=C(Cc1cccc2ccccc12)N/N=C/c1ccc2cccc(O)c2n1,i,-32,10,23,8,48,2,-5,
COc1ccc2[nH]c(C)c(CCNC(=S)Nc3cc(C)ccc3C)c2c1,i,-12,-4,-14,3,-2,0,-8,
COc1ccc(NS(=O)(=O)c2cc(NC(=O)Cn3cnc4c3c(=O)n(C)c(=O)n4C)ccc2C)cc1,i,-8,2,-32,-8,50,-2,-4,
O=C(CCNC(=O)c1ccccc1Cl)NCC1COc2ccccc2O1 (stereo unspecified),·,-10,·,10,·,·,1,4,
O=C(CNC(=O)c1ccc(C(F)(F)F)cc1)NC1CC1,·,2,·,2,·,-6,13,2,
CN(C)Cc1c(C(=O)N/N=C/c2ccoc2)nnn1-c1nonc1N,·,-15,9,7,2,-1,-3,2,
C=CCn1cc(-c2ccccc2)cc(C#N)c1=O,+,1,-5,·,-9,-12,10,3,
O=C(CCC(=O)N1CCOCC1)NCCc1ccc(Cl)cc1Cl,i,-5,-2,-36,-9,-9,1,5,
O=C(CSc1nc2c(sc3ccccc32)c(=O)n1CCCN1CCCC1)NCc1ccccc1,i,·,-1,-12,60,·,-4,-4,eIF4H FP inh retest=-2;PABP FP inh retest=18
C[C@]1(C(=O)NCCCNc2ncc(C(F)(F)F)cc2Cl)C=C[C@@H](Cc2ccccc2)N1C(=O)c1ccccc1,i,2,7,·,-4,60,0,-3,
COc1ccc(OC)c(C(=O)CSc2nnc(C3CC3)n2C2CC2)c1,·,-20,·,2,·,·,2,2,
CCOC(=O)C1CCCN(C(=O)COc2ccccc2O)C1 (stereo unspecified),i,2,-3,-88,0,7,1,-3,

# Source: PubChem
